Screens deposited in PubChem BioAssay by ICCB-Longwood Screening Facility, Harvard Medical School.
PV pol inh: inhibitors of poliovirus RNA polymerase binding and polymerization. poliovirus polymerase elongation, fluorescence polarization; stronger effect = lower value. % elongation, % (compound at 16.7 µg/mL). 0.66% of 150,000 active; in the data active means % elongation below about 90%; further: some results filed as inactive read as strong as hits
Target sequence (P03300 1749-2209 limits assumed): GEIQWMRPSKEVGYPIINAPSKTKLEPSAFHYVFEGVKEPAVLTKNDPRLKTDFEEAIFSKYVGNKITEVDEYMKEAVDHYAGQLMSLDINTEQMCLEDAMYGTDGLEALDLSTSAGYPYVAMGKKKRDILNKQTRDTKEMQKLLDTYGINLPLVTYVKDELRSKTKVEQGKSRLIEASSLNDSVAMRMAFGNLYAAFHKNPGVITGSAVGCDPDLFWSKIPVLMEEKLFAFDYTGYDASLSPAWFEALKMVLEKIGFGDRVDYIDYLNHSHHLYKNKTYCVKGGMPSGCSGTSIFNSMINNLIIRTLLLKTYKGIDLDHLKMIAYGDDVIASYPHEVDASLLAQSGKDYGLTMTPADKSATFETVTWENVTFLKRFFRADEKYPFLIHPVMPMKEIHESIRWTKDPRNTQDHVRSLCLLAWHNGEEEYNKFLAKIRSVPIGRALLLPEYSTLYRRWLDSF
PV pol inh intensity: recorded beside PV pol inh, whose call it bears; % elongation; measured here: total intensity read-out; formula for this scale not given here;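 total fluorescence in place of polarization; lower means less elongation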
An asterisk follows results filed as active. The list is partial; count on the stated rates, not on these rows.

The line under a structure holds: PV pol inh | PV pol inh intensity
> O=C1COc2cc(S(=O)(=O)CCC(=O)NC3CCCCC3)c(Cl)cc2N1
    99 | 106
> CSc1ccc(CCNC(=O)CN2C(=O)COc3ccc(S(=O)(=O)N4CCCC4)cc32)cc1
    104 | 106
> CCN(CC)CCCNC(=O)CCCn1ncn2c(cc3occc32)c1=O
    114 | 117
> CN(CC(=O)Nc1cccc(C#N)c1)S(=O)(=O)c1cc2c(cc1Cl)NC(=O)CO2
    105 | 100
> CC(C)OCCCn1c(SCc2ccccc2Cl)nc2c(sc3ccccc32)c1=O
    111 | 90
> O=C(Nc1ccc2c(c1)OCO2)c1cccn(Cc2cccc(F)c2)c1=O
    96 | 104
> COc1ccc(CNC(=O)C2CCN(S(=O)(=O)c3ccc4c(ccn4C)c3)CC2)cc1
    105 | 107
> COCCCNC(=O)c1ccc(NC(=O)N2CCCCc3ccccc32)cc1
    104 | 109
> Cc1cc(C)c(S(=O)(=O)NCCc2sc3nc(-c4ccc(F)cc4)nn3c2C)c(C)c1
    111 | 109
> CN(C)c1ccc(-c2noc(C3CC(=O)N(c4ccc5c(c4)OCCO5)C3)n2)cc1 (stereo not given)
    94 | 99
> COc1ccc(CNS(=O)(=O)c2cc3c4c(c2)CCN4C(=O)CC3)cc1
    95 | 93
> CCOCCCn1c(SCC(=O)Nc2ccc(OC)cc2OC)nc2ccccc2c1=O
    108 | 113
> Cc1ccc(NC(=O)Nc2nnc(N(C)Cc3ccccc3)s2)cc1
    108 | 113
> CCN1CCN(c2ncc3c(n2)CCN(Cc2ccc(Br)s2)C3)CC1
    110 | 105
> Cn1ncc2c(NCc3cccc(Cl)c3)ncnc21
    104 | 101
> CCOc1ccc(NC(=O)CC2C(=O)N(c3ccc(C)cc3)C(=O)N2Cc2ccc(OC)cc2)cc1 (stereo not given)
    103 | 104
> CCCOc1ccc(CNC(=O)c2oc3ccc4c(c3c2C)C(=O)CC(C)(CC)O4)cc1 (stereo not given)
    107 | 107
> Cc1nn(C(=O)c2cccc(F)c2)c(C)c1S(=O)(=O)N1CCCCCC1
    104 | 106
> Cc1cn(C)c(CC(=O)NCc2ccc(F)cc2)c1C(=O)O
    110 | 111
> CCN(CC)C(=O)Cn1c(=O)n(-c2ccc(Cl)cc2)c(=O)c2c3c(sc21)CCCCC3
    109 | 110
> Cc1ccc(C)c(CN2C(=O)c3ccccc3Sc3ccc(C(=O)NCc4ccco4)cc32)c1
    105 | 107
> CCCCN(CC)C(=O)CSc1c2c(nc3ccc(Cl)cc13)CCCC2
    104 | 104
> Cc1ccc(C(=O)CSc2nnc(-c3ccccc3)n2-c2ccccc2)cc1
    104 | 99
> CCCCOc1ccc(CNC(=O)c2cc3n(n2)CCCN(Cc2ccc(C)cc2)C3=O)cc1
    110 | 111
> CC(C)C12CN3CC(C(C)C)(CN(C1)C3c1ccccn1)C2=O (stereo not given)
    121 | 123
> Cc1cccc(NC(=O)CN2C(=O)CSc3ccc(S(=O)(=O)N4CCCC4)cc32)c1C
    119 | 123
> COc1ccc(-c2nc(C)c(CCNC(=O)c3cccc(C)c3)s2)cc1OC
    99 | 99
> CCC(Cc1ccccc1)NC(=O)c1ccc2nc(N3CCC(C)CC3)sc2c1 (stereo not given)
    108 | 112
> COC(=O)c1sccc1S(=O)(=O)N1CCN(c2cc(Cl)ccc2C)CC1
    109 | 108
> COCCn1c(SCC(=O)c2c(C)[nH]c3ccccc23)nc2cc(C(=O)NC(C)C)ccc2c1=O
    102 | 104
> COc1ccc(NC(=O)C(NC(=O)C2CCC(C)CC2)C(C)C)cc1 (stereo not given)
    107 | 111
> CC1CCN(S(=O)(=O)c2ccc3c(c2)oc(=O)n3CC(=O)NCc2ccc(F)cc2)CC1
    103 | 98
> COCCNC(=O)C(=O)NCC(c1ccc2c(c1)OCO2)N1CCOCC1 (stereo not given)
    100 | 106
> COc1ccc(NCc2cc3cc4c(cc3n(CC(=O)Nc3ccc(C)cc3C)c2=O)OCO4)cc1
    105 | 114
> Cc1cc(SCC(=O)NCc2ccc(F)cc2)nc(=O)[nH]1
    110 | 96
> CCc1ccc(S(=O)(=O)Nc2cc3c(cc2N2CCOCC2)n(C)c(=O)c(=O)n3C)cc1
    104 | 97
> COc1cccc(NC(=O)c2oc3ccccc3c2NC(=O)c2ccccc2C)c1
    102 | 102
> CCOc1ccc(NC(=O)C(C)n2c(=O)cc(-c3ccccc3)c3c(C)nn(C)c32)cc1 (stereo not given)
    108 | 111
> COC(=O)c1ccc(Cn2nnc3sc4c(c3c2=O)CCC(C)C4)cc1 (stereo not given)
    106 | 112
> Cc1ccc2cccc(NC(=O)C(C)Oc3ccc(C)c(C)c3)c2n1 (stereo not given)
    100 | 106
> COc1ccc(CCC(=O)NCCc2csc(-c3ccc(Cl)cc3)n2)cc1
    101 | 99
> COc1cccc(C2C(=O)N(C3CCCCC3)CC(=O)N2Cc2ccc(Cl)cc2)c1 (stereo not given)
    110 | 114
> COc1ccc(CCC(=O)NC2CC(=O)N(c3cccc(F)c3)C2)cc1 (stereo not given)
    112 | 97
> COc1ccc(-n2ccn(Cc3ccc(C)cc3)c(=O)c2=O)cc1OC
    99 | 104
> Cc1cc(C)cc(-n2c(SCC(N)=O)nc3c([nH]c4ccccc43)c2=O)c1
    109 | 115
> COC(=O)c1cc2occc2n1CC(=O)Nc1ccc(C(C)C)cc1
    105 | 109
> CC(=O)c1ccc(N2C(=O)Nc3ccccc3S2(=O)=O)cc1
    107 | 100
> CCOC(=O)c1ccc(NS(=O)(=O)c2ccc3c(c2)n(C)c(=O)n3C)cc1
    110 | 111
> CCOC(=O)CNC(=O)c1ccc(-c2nn(C)c(=O)c3ccccc23)cc1
    104 | 111
> CCCN(CCC)CCNC(=O)c1sc2nc3n(c(=O)c2c1C)CCCCC3
    106 | 111
> CCc1ccc(-n2c(=O)c3c(C)c(C(=O)N(C)C)sc3n(Cc3ccccc3C#N)c2=O)cc1
    104 | 110
> CCOc1cccc(CC(=O)N2CCc3c([nH]c4ccccc34)C2c2ccc(F)cc2)c1OCC (stereo not given)
    102 | 103
> COc1ccc(C)cc1NS(=O)(=O)c1ccc2c3c(cccc13)C(=O)N2
    105 | 102
> Cc1ccc(C(c2sc3nc(-c4ccco4)nn3c2O)N2CCOCC2)cc1 (stereo not given)
    113 | 111
> COc1cccc(C2CC(=O)Nc3c2c(=O)nc2c(C)cccn32)c1 (stereo not given)
    104 | 109
> CNC(=O)c1c(NC(=O)c2cc(=O)c3ccccc3o2)sc2c1CCC2
    112 | 113
> CCOC(=O)c1c(C)oc2ncnc(Nc3ccc(OC)cc3OC)c12
    110 | 114
> CCOc1ccc(-c2cnc(NCc3cccc(Cl)c3)n2C)cc1
    103 | 104
> Cc1ccc2onc(CNC(=O)N3CCN(c4cccc(C)c4C)CC3)c2c1
    107 | 114
> CCOc1ccc(-c2cccc(NS(=O)(=O)c3ccc(C)s3)c2)nn1
    110 | 107

Among those listed so far, these have a furan ring, fused or not.
The line under a structure holds: PV pol inh | PV pol inh intensity
> CCN(CC)CCCNC(=O)CCCn1ncn2c(cc3occc32)c1=O
    114 | 117
> CCCOc1ccc(CNC(=O)c2oc3ccc4c(c3c2C)C(=O)CC(C)(CC)O4)cc1 (stereo not given)
    107 | 107
> Cc1ccc(C)c(CN2C(=O)c3ccccc3Sc3ccc(C(=O)NCc4ccco4)cc32)c1
    105 | 107
> COc1cccc(NC(=O)c2oc3ccccc3c2NC(=O)c2ccccc2C)c1
    102 | 102
> COC(=O)c1cc2occc2n1CC(=O)Nc1ccc(C(C)C)cc1
    105 | 109
> Cc1ccc(C(c2sc3nc(-c4ccco4)nn3c2O)N2CCOCC2)cc1 (stereo not given)
    113 | 111
> CCOC(=O)c1c(C)oc2ncnc(Nc3ccc(OC)cc3OC)c12
    110 | 114

The results go on:
The line under a structure holds: PV pol inh | PV pol inh intensity
> COc1cccc(CNC(=O)c2cc3n(n2)CCCN(Cc2ccc(C)cc2)C3=O)c1OC
    107 | 108
> CCOc1ccc(-c2cc3c(=O)n(CC(=O)NCc4ccccc4)ccn3n2)cc1
    101 | 109
> COc1ccc(CC(=O)NCCc2csc(-c3ccc(C(F)(F)F)cc3)n2)cc1
    110 | 111
> Cn1c(=O)c2sccc2n2c(CCCC(=O)Nc3ccc(Cl)cc3)nnc12
    106 | 106
> CC(C)c1ccc(NC(=O)c2cc(S(=O)(=O)N3CCCCC3)cn2C)cc1
    103 | 104
> CCN1C(=O)C(Cc2nc3ccccc3c(=O)n2-c2cccc(C)c2)c2ccccc21 (stereo not given)
    104 | 104
> O=C(CN(c1cc(C(F)(F)F)ccc1Cl)S(=O)(=O)c1ccccc1)NCCc1ccccc1
    107 | 110
> O=C(Nc1cccc(C(=O)OCc2cc(=O)n3ccsc3n2)c1)c1ccc(F)cc1
    101 | 99
> CCc1ccc(NC(=O)c2sc(-n3nc(C)c(Cc4ccc(OC)cc4)c3C)nc2C)cc1
    101 | 99
> CCOC(=O)c1c(S(=O)(=O)N2CCCC(C(=O)Nc3cccc(CC)c3)C2)c(C)n(CC)c1C (stereo not given)
    113 | 254
> CC(=O)c1ccc(NC(=O)c2cc(C)nc3c2c(C)nn3-c2ccc(C)cc2)cc1
    103 | 108
> CCOC(=O)c1c(NC(=O)Cc2coc3cc(C)cc(C)c23)sc2c1CCC2
    114 | 113
> COc1ccccc1N1CCN(C(=O)C2CCCN(S(=O)(=O)c3ccc4c(c3)CCCN4C(C)=O)C2)CC1 (stereo not given)
    111 | 112
> CN1C(=O)Cc2cc(S(=O)(=O)N3CCN(c4ccccc4F)CC3)ccc21
    109 | 103
> CC(C)(C)C(=O)Nc1cc(-c2cccc(Br)c2)nn1-c1ccccc1
    113 | 104
> COc1cccc(CNC(=O)c2cccc(N3CCCS3(=O)=O)c2)c1
    110 | 112
> CCOc1ccc(NC(=O)N(C(C)C)C2CCN(C(C)=O)CC2)cc1
    115 | 116
> CC(=O)NNc1ncnc2c1cnn2-c1ccccc1
    113 | 116
> Cc1ccc(NS(=O)(=O)c2ccc(-c3cc(C)no3)cc2)c(C)c1
    109 | 113
> Cc1ccc(Cl)cc1N1CCN(C(=O)c2cnn(C)c2C2CCN(C(=O)OC(C)(C)C)CC2)CC1
    108 | 104
> CCc1nnc2c(Nc3cccc(F)c3)nc3ccc(C(=O)c4ccccc4)cc3n12
    110 | 106
> CCOc1ccc(CCNC(=O)CCCc2nnc3n(CC)c(=O)c4sccc4n23)cc1
    110 | 112
> O=S(=O)(c1ccc(F)cc1)N(Cc1nc(-c2ccc(Cl)cc2)no1)C1CCCCC1
    107 | 109
> COc1ccc(CCNC(=O)c2ccc(Cn3c(=O)c4cccn4c4cccnc43)cc2)cc1OC
    104 | 100
> COc1ccc(NC(=O)Cn2nc3c(cc2=O)CCCC3)cc1Cl
    100 | 109
> COCc1cc(C)nc2sc(C(=O)Nc3ccccc3O)c(N)c12
    110 | 115
> CC(C)COc1ccc(C(=O)Nc2nnc(S(=O)(=O)N(C)Cc3ccco3)s2)cc1
    106 | 110
> CCCCOC(=O)c1ccc(Nc2nc3ccccc3c3nnc(C)n23)cc1
    107 | 112
> Cc1ccc(NC(=O)C2CCCN2S(=O)(=O)c2cccc3cccnc23)cc1 (stereo not given)
    104 | 107
> CSc1nc(Nc2ccc(F)cc2)cc(-c2ccccc2)n1
    105 | 97
> COc1ccc(OC)c(NC(=O)c2cc(=O)c3c(C)cc(C)cc3o2)c1
    105 | 108
> OCCCc1nc2ccccc2n1CCCCOc1ccccc1
    106 | 107
> Cc1ccc(NC(=O)CCCn2nc(C)c3c(C)n(-c4ccccc4)nc3c2=O)cc1Cl
    113 | 112
> Cc1ccc(Cn2c(SCc3ccc(C(=O)NC4CCCCC4)cc3)nc3ccncc32)cc1
    112 | 114
> CC(C)CC(=O)Nc1nnc2n1CCS2
    105 | 104
> CCc1ccc(NC(=O)C(=O)NCCc2sc3nc(-c4ccc(OC)cc4)nn3c2C)cc1
    110 | 110
> c1ccc(N2CCN(Cc3cccn3-c3nnc(N4CCN(C5CCCCC5)CC4)s3)CC2)cc1
    106 | 103
> COc1ccc(NC(=O)c2c(NCc3sccc3C)sc3c2CCCC3)c(OC)c1
    111 | 115
> Nc1c(C(=O)Nc2ccc(Cl)c(C(F)(F)F)c2)sc2nc(-c3ccncc3)ccc12
    114 | 126
> O=C(c1cccn2c(=O)c3cc(Cl)ccc3nc12)N1CCN(c2ccccc2F)CC1
    96 | 102
> O=C(CSc1nccn1Cc1ccccc1)NC1CCCC1
    105 | 111

Gathered by group: those above containing two or more sulfur atoms (8)
The line under a structure holds: PV pol inh | PV pol inh intensity
> CSc1ccc(CCNC(=O)CN2C(=O)COc3ccc(S(=O)(=O)N4CCCC4)cc32)cc1
    104 | 106
> CC(C)OCCCn1c(SCc2ccccc2Cl)nc2c(sc3ccccc32)c1=O
    111 | 90
> Cc1cc(C)c(S(=O)(=O)NCCc2sc3nc(-c4ccc(F)cc4)nn3c2C)c(C)c1
    111 | 109
> Cc1cccc(NC(=O)CN2C(=O)CSc3ccc(S(=O)(=O)N4CCCC4)cc32)c1C
    119 | 123
> COC(=O)c1sccc1S(=O)(=O)N1CCN(c2cc(Cl)ccc2C)CC1
    109 | 108
> CCOc1ccc(-c2cccc(NS(=O)(=O)c3ccc(C)s3)c2)nn1
    110 | 107
> CC(C)COc1ccc(C(=O)Nc2nnc(S(=O)(=O)N(C)Cc3ccco3)s2)cc1
    106 | 110
> COc1ccc(NC(=O)c2c(NCc3sccc3C)sc3c2CCCC3)c(OC)c1
    111 | 115
